# Assay outcomes from PubChem.
# Six1-Eya2 blk: qHTS Assay for Inhibitors of the Six1/Eya2 Interaction. activity change, % (test concentration not listed). AlphaScreen GST-Six1/His-Eya2 binding, biochemical; stronger effect = lower value; control for the full effect not named in the record. 360,000 tested, 0.56% active. AID 651725, 2012; in the data active = activity change below about -65%; inconclusive = about -30% to -65%; inactive = above about -30%; also: % is scaled to controls: 0 for no effect and ±100 for the full control effect; compound concentration not given in the record
# Target sequence (O00167 whole entry, looked up): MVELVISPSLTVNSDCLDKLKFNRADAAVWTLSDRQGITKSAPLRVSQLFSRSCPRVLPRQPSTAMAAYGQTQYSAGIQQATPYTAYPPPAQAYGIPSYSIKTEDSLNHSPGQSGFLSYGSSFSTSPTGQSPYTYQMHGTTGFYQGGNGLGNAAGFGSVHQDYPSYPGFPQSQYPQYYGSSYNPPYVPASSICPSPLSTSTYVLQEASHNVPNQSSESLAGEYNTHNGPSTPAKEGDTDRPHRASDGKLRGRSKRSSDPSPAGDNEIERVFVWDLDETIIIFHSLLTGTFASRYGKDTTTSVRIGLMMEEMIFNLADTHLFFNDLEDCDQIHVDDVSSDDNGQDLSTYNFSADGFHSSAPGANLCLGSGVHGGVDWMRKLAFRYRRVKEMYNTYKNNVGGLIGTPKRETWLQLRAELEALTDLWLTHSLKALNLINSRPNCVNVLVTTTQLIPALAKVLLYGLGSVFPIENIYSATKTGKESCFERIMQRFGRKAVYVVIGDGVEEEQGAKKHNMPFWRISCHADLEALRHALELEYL
# Target sequence (Q15475 whole entry, looked up): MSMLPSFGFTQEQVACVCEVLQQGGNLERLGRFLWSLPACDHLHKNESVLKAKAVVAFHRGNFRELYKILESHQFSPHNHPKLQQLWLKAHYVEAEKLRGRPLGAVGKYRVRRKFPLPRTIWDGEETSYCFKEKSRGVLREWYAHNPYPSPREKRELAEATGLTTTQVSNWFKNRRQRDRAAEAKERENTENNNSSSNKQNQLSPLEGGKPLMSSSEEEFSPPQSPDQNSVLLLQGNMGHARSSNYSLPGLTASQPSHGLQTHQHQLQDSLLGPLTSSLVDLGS
#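 Six1/Eya2 binding was read as AlphaScreen signal after compounds were pinned into GST-Six1 plus His-tagged Eya2 (5X stock 250/500 nM) in pH 8.0 Tris/NaCl/TCEP buffer, beads added, then incubated 1 h, 37 C, dark.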
# D2 agonist: Beta-Arrestin HTS for Positive Allosteric Modulators of the Human D2 Dopamine Receptor: Agonists. D(2) dopamine receptor (Homo sapiens), P14416. DiscoveRx PathHunter D2 beta-arrestin, luminescence, 90 min; 100% = 57 uM dopamine signal. activation, % (test concentration not listed). 360,000 tested, 0.084% active; in the data active = activation above about 40%; inconclusive = about 15% to 40%; inactive = below about 15%; also: compound concentration not given in the record; the text of the record calls up to 30% inactive
#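 DiscoveRx PathHunter D2 beta-arrestin cells (2,100/well) attached overnight, then compound-stimulated 90 min at 37 C in HBSS/10 mM HEPES/0.1% Tween-20 buffer; beta-galactosidase complementation read by luminescence after 1 h at ambient temperature. Dopamine 57 uM final (EC100) as control.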
# TRPML1 blocker: qHTS for Inhibitors of the Human Mucolipin Transient Receptor Potential 1 (TRPML1). activity change, negative = inhibition, % (no concentration beside the values). AID 624415, 2012. TRPML1-inducible cells, Ca2+ dye fluorescence, FDSS; stronger effect = lower value; inhibition of EC80 agonist-evoked calcium signal. Mucolipin-1 (Homo sapiens), Q9GZU1. 390,000 tested, 0.02% active; in the data active means activity change below about -50%; inconclusive means about -30% to -50%; inactive means above about -30%;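 also: stimulus is agonist 54-4 at its EC80 concentration; % is scaled to controls: 0 for no effect and ±100 for the full control effect; compound concentration not given in the record; the text of the record puts the active cut at -80%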
#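 Calcium fluorescence in TRPML1-DL cells induced overnight with Tet: a 110 s read after compound pin addition, then a 110 s antagonist read after challenge with 54-4 at 4 uM final (EC80).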
# D2 PAM: Beta-Arrestin HTS for Positive Allosteric Modulators of the Human D2 Dopamine Receptor: Potentiators; D(2) dopamine receptor (Homo sapiens), P14416; DiscoveRx D2 beta-arrestin cells, luminescence, 90 min; 100% = 57 uM dopamine signal; potentiation, % (test concentration not listed); 360,000 tested, 0.23% active; AID 624464, 2012; active = potentiation of 50% or more; inconclusive = 30% to 50%; inactive = 30% or less;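 also: compound concentration not given in the record; tested on top of an EC20 dose of dopamine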
#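 D2 cells co-treated with compound plus 50 nM dopamine (EC20) for 90 min at 37 deg C to detect potentiation. Beta-arrestin recruitment was read as enzyme-fragment luminescence after 1 h at ambient temperature. Full response was set by 57 uM dopamine.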
# PINK1 modulator: A Quantitative High throughput Screen to Identify Chemical Modulators of PINK1 Expression; PINK1 immunofluorescence, high-content cytometry, 24 h; Potency, µM (series often up to 76.6 µM), inactives show at the top dose activation (PINK1 increase), usual class: activators; 410,000 tested, 0.2% active; active = well fitted activation curve with a large enough effect; inconclusive = small, poorly fitted or top-dose-only effect; inactive = flat fitted curve, though single readings scatter; cell line not stated here;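 also: potency is read from the fitted curve at half-maximal effect; % of control where 0% means no effect; nearly all actives have a fitted effect of over 65% in size; a mitochondrial uncoupler was the plate control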
#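 Measures PINK1 amount and localization on or inside mitochondria by immunofluorescence. Stable cells get compounds at 5 concentrations for 24 hours before fixation and staining; CCCP controls included.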
# TRPML1 ag: qHTS for Agonists of the Human Mucolipin Transient Receptor Potential 1 (TRPML1). 410,000 tested, 0.12% active. TRPML1-expressing cells, Ca2+ dye fluorescence, FDSS; host cell line not named in the record; reference of the full effect not given here. activation, % (no concentration beside the values). AID 624414, 2012. Mucolipin-1 (Homo sapiens), Q9GZU1; in the data active = activation above about 50%; inconclusive = about 30% to 50%; inactive = below about 30%; also: 0% is about no effect; the text of the record puts the active cut at 80%
#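 In this qHTS format, compounds were pin-transferred onto Ca8-dye-loaded TRPML1-DL cells induced with Tet overnight, and intracellular Ca2+ fluorescence was recorded kinetically for 110 s after a 10 s baseline. A subsequent 4uM final 54-4 (EC80) addition followed by a second 110 s read served as the antagonist phase.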
# * hit, by the source's call; ? = inconclusive; · = not tested or not shown; & = joins results of further samples; [ ] = remark or other dose.
SMILES,Six1-Eya2 blk,D2 agonist,TRPML1 blocker,D2 PAM,PINK1 modulator,TRPML1 ag
COc1ccc(C(C(=O)NC2CCCCC2)N(C(=O)Cc2c[nH]c3ccccc23)c2ccccc2C)cc1OC (stereo not given),0,-2.3,-1,-17,1.1%,0.6
Cc1noc(C)c1COC(=O)c1ccc(-c2nc3ccccc3s2)s1,10,-2.6,28,4,5.8%,-0.7
O=c1oc2cc(O)ccc2cc1-c1ccc(F)cc1,12,2.0,1,-7,3.3%,1.2
O=C(CSc1nnnn1-c1ccccc1)N1CCc2ccccc2C1,-1,-1.0,8,-8,-0.3%[38.3 µM],0.0
C=CCN1C(=O)c2ccc(C(=O)N3CCC(C(=O)OCC)CC3)cc2C1=O,3,-3.8,-2,0,1.3%,-0.2
COc1ccccc1-c1cn(S(=O)(=O)c2ccc(F)cc2)nc1N,-7,3.1,24,-3,3.4%,1.3
Cc1ccc(NC(=O)CSc2nnc(CCC(=O)O)c(=O)[nH]2)cc1,-5,-2.3,6,0,3.2%,0.2
O=C(CSc1nc2ccccc2s1)Nc1ccc(C(=O)O)cc1,-8,?,·,-4,-0.3%,·
O=C(COc1ccccc1O)c1cccs1,22,-4.6,-9,-15,0.9%,-1.3
CC1=CC(=O)C=C(C)C1=NOS(=O)(=O)c1ccccc1,7,?,52,19,-0.9%,1.6
Cn1c(N)c(C(=O)CSc2nnc(C3CC3)n2-c2ccccc2)c(=O)n(C)c1=O,5,5.6,-3,-9,0.0%,2.0
CCCCNc1oc(-c2cccs2)nc1S(=O)(=O)c1ccccc1,-2,-1.6,46,-3,-4.5%[38.3 µM],5.1
Cc1ccc(-n2nc(C)c3c(C(=O)NCc4ccccc4)cc(C4CC4)nc32)cc1,·,·,-9,·,0.3%,0.5
CN(CC(=O)Nc1ccccc1C(F)(F)F)C(=O)CSc1nc(N)cc(N)n1,4,7.4,10,-2,0.0%,0.8
CCOC(=O)C1CCN(C(=O)c2ccccc2N(C)S(=O)(=O)c2ccccc2)CC1,12,0.3,-1,3,1.6%,0.2
Cc1ccc(C(=O)NCC(=O)Nc2ccncc2)cc1,9,9.7,41,-3,-1.0%,0.4
Cc1cccc(NC(=S)NNC(=O)COc2ccc(Cl)cc2Cl)c1,-12,-2.4,-5,-17,0.7%,-0.1
O=C(CCc1nc2ccccc2c(=O)[nH]1)N1CCN(c2ccccc2Cl)CC1,2,0.4,9,4,1.0%,-2.1
O=C(NCCCn1ccnc1)C(=O)NCC1OCCN1S(=O)(=O)c1ccccc1 (stereo not given),?,0.4,1,-3,0.6%,-0.6
O=C(NCCc1c[nH]c2ccccc12)C(=O)NCC1OCCN1S(=O)(=O)c1ccc(F)cc1 (stereo not given),-2,-1.3,2,-3,4.0%,-0.6
O=C(NC1CC1)c1ccc(NC(=O)C2CCCCC2)cc1,0,-1.2,-10,·,-0.1%,-0.4
CN1CCCC(OC(=O)c2cccc(Cl)c2)C1 (stereo not given),4,3.0,2,-5,2.2%,0.8
Cc1sc2nc(CN3CCCC3)nc(N3CCC(C(N)=O)CC3)c2c1C,-3,-2.2,6,-28,-0.2%,-0.8
Cc1cccc(S(=O)(=O)Nc2ccc(C)c3c2OC(C)(C)C3)c1,0,-1.7,-3,-4,1.0%,3.1
O=C(COc1ccc(Cl)cc1)Nc1ccc(N2CCN(C(=O)c3ccco3)CC2)cc1,-15,4.6,5,4,2.2%[38.3 µM],-0.5

# Look-ups from the results shown:
# Cc1ccc(-n2nc(C)c3c(C(=O)NCc4ccccc4)cc(C4CC4)nc32)cc1 – PINK1 modulator: 0.3%
# C=CCN1C(=O)c2ccc(C(=O)N3CCC(C(=O)OCC)CC3)cc2C1=O – TRPML1 ag: -0.2

# (next part)
SMILES,Six1-Eya2 blk,D2 agonist,TRPML1 blocker,D2 PAM,PINK1 modulator,TRPML1 ag
CCC(=O)/C=C1\Sc2ccccc2N1CC,-2,-0.2,26,-14,1.1%,-0.3
O=C(CN(Cc1cccs1)C(=O)CCC(=O)Nc1nccs1)NCc1ccccc1,4,2.2,2,-1,-3.1%[38.3 µM],0.5
Cn1c(=O)c2c(SCC(=O)NCc3ccco3)nc(CC(C)(C)C)nc2n(C)c1=O,-3,-0.1,7,1,3.1%,1.0
C=CCn1c(SCCCCCC)nc(O)cc1=O,4,1.0,0,-4,2.0%[38.3 µM],0.7
CCc1ccc(NC(=O)CSc2nnc(-c3ccccn3)n2C)cc1,-9,-1.2,-12,1,8.5%[38.3 µM],0.2
Cc1ccc(C)c(NC(=O)c2cc(-c3cc(C)cc(C)c3O)n[nH]2)c1,1,-1.6,-21,-1,24%,2.2
O=S1(=O)C[C@@H](N2CC[C@@H](O)C2)[C@H](COCc2ccccc2)N1,0,-2.1,·,0,1.5%,-0.5
CCOc1ccc(NC(=O)c2ccc(C#CC(C)(C)O)cc2)cc1,1,-1.2,15,2,5.7%[38.3 µM],-0.6
COc1nnc(-c2ccc(N3CCCCC3)c(NC(=O)c3ccccc3)c2)c2ccccc12,·,·,-8,·,0.5%,-0.7
COc1ccc(Cn2c(C(=O)O)c(CNCc3cccs3)c3ccc(C)cc32)cc1,·,·,-18,·,1.9%,3.0
O=[N+]([O-])c1cccc(N/N=C/c2ccc(N3CCOCC3)cc2)c1,-25,0.2,-23,10,-1.9%,-0.5
CC(C)c1cc(C(=O)N2CCN(C(c3ccccc3)c3ccccc3)CC2)no1,8,0.3,-16,-24,5.1%,26
COc1ccc(CC(=O)NCCc2ccc(OC)c(OC)c2)cc1,-4,-2.5,-6,-3,1.5%,0.9
CCOc1ccc(N(CC(=O)Nc2ccc3c(c2)OCCO3)S(=O)(=O)c2c(C)noc2C)cc1,-12,1.8,3,-1,-0.5%,0.4
O=c1c(Cc2ccccc2)c(O)nc2n1CCCS2,-1,0.1,24,-5,1.2%,2.0
O=C(NN1CCN(Cc2ccccc2Cl)CC1)c1ccc(Br)cc1,9,-0.8,-7,-17,6.9%,0.5
COc1cc(C(=O)O[C@H]2C/C(C)=C/CC[C@@]3(C)O[C@@H]3[C@H](O)[C@@H]2C(C)C)cc(OC)c1OC,1,10,·,22,0.5%,·
COc1ccc(OC)c(-c2nc(CN(C)C(C)c3ccncn3)c(C)o2)c1 (stereo not given),5,1.4,15,-12,2.0%,0.4
CCOC(=O)c1c(S(=O)(=O)N2CCCCCC2)c(C)n(C)c1C,-5,0.2,9,-10,0.6%,-0.1
CCN(CC)S(=O)(=O)c1ccc(C)c(NC(=O)c2cc(C)oc2C)c1,-4,-5.5,6,-1,-0.9%,0.3
Cn1nc(-c2ccc(C(=O)Nc3cccc(C(F)(F)F)c3)cc2)c2ccccc2c1=O,·,·,-12,·,1.4%,-0.3
Cc1ncc(CN2CCCCC2C(=O)Nc2ccc(Oc3ccccc3)nc2)cn1 (stereo not given),-2,1.0,0,-10,2.5%,-0.2
CCC(c1nnnn1CS(=O)(=O)c1ccc(C)cc1)N1CCN(c2nc3ccccc3s2)CC1 (stereo not given),-7,3.7,26,-5,·,0.8
CC1=C(C(=O)OCCOc2ccccc2)C(c2ccsc2)NC(=O)N1C (stereo not given),-3,6.4,19,-5,-1.2%,1.3
CN(C)C(=O)CCc1ccc2c3c([nH]c2c1)[C@]1(C)[C@@H](C(=O)N2CCOCC2)C[C@H](CC(=O)NCCc2ccccn2)C(=O)N1CC3,4,1.8,-13,·,-0.1%,-0.6

# Carrying on.
SMILES,Six1-Eya2 blk,D2 agonist,TRPML1 blocker,D2 PAM,PINK1 modulator,TRPML1 ag
CC(C)COC(=O)CNc1n[nH]c(=S)[nH]c1=O,-1,0.8,-5,-13,-1.6%[38.3 µM],0.7
O=C(CN1CCCc2ccccc21)NCCc1ccc(Cl)cc1,-12,-0.6,35,0,-0.7%,0.7
CC(C)CCC[C@](C)(O)c1ccc(C(=O)O)cc1O,0,·,·,·,1.5%,-0.6
COC(CNc1cc(=O)oc2ccccc12)OC,3,-1.6,19,-20,-0.2%,-0.6
Clc1ccc(CN=C(Nc2ccccc2)NC2CCCCC2)cc1,0,-11,5,-17,-2.4%,1.3
CCCc1cnc(N2CCN(C(=O)c3c(-c4ccccc4)noc3C)CC2)nc1,3,1.0,5,-5,5.0%,-0.7
CCOc1ccc(/C=N/Nc2nc(C)cs2)c(O)c1,-68*,-4.7,6,-5,2.0%,0.2
CC(C)C(NC(=O)/C=C/c1ccc(F)cc1)C(C)C,2,-3.2,-6,-22,1.1%,-0.4
Cc1ccc(CCNC(=O)CCn2c(=O)c3cccn3c3ccc(F)cc32)cc1,-2,-1.7,19&-5,-14,18%&0.8%,0.1&2.0
Cc1ccc(C(C(=O)NC2CCCCC2)N(Cc2ccco2)C(=O)C2COc3ccccc3O2)o1 (stereo not given),-3,-4.1,3,-17,6.8%,2.0
O=C(CCNC(=O)c1ccccc1Cl)Nc1cc(S(=O)(=O)N2CCOCC2)ccc1N1CCOCC1,0,-1.5,·,-6,0.8%,·
O=C(NNC(=S)NC1CCCCC1)c1cccc(S(=O)(=O)Nc2ccccc2Cl)c1,-14,4.0,-23,-8,0.1%,2.4
Cc1c(CCO)c(=O)[nH]n1S(=O)(=O)c1ccccc1,2,6.0,5,-4,0.5%,-0.5
Cc1ccc(CNC(=O)C2CC(=O)OC23CCCC3)c(C)c1 (stereo not given),-2,3.3,4,1,-3.8%[38.3 µM],-0.6
O=C(O)c1nc(Cl)c(Cl)c(N/N=C/c2ccccc2C(F)(F)F)c1Cl,-21,-3.2,33,-4,2.9%,0.7
COc1ccccc1OC1=NS(=O)(=O)c2ccccc21,12,-0.7,2,24,-2.1%,-0.5
Cc1ccc(S(=O)(=O)Nc2ccc(-c3csc(-c4ccccc4)n3)cc2)cc1,-3,7.8,-1,23,?,-0.2
COc1ccccc1C(=O)NNC1CC(=O)N(c2ccc3c(c2)OCCO3)C1=O (stereo not given),1,-11,17,-3,2.9%,-1.0
COc1cccc(/C=C/C(=O)OCC(=O)Nc2ccc(S(=O)(=O)N3CCCC3)cc2)c1,-3,-5.0,0,-7,-1.5%,-0.5
O=C(Oc1ccc2c3c(c(=O)oc2c1)CCCC3)c1cccs1,-7,-1.6,13,0,-0.6%,0.0

# Quoted at random: four compounds from above
SMILES,Six1-Eya2 blk,D2 agonist,TRPML1 blocker,D2 PAM,PINK1 modulator,TRPML1 ag
COC(CNc1cc(=O)oc2ccccc12)OC,3,-1.6,19,-20,-0.2%,-0.6
Cc1ccc(CNC(=O)C2CC(=O)OC23CCCC3)c(C)c1 (stereo not given),-2,3.3,4,1,-3.8%[38.3 µM],-0.6
O=C(CCNC(=O)c1ccccc1Cl)Nc1cc(S(=O)(=O)N2CCOCC2)ccc1N1CCOCC1,0,-1.5,·,-6,0.8%,·
O=C(CN1CCCc2ccccc21)NCCc1ccc(Cl)cc1,-12,-0.6,35,0,-0.7%,0.7
